# Assay outcomes from PubChem.
# PINK1 expr mod – modulators of PINK1 expression. AID 624263. Potency, µM (top dose mostly 76.6 µM), for inactives: at the highest dose activation (PINK1 increase), usual class: activators. 410,000 tested, 0.2% active. PINK1 immunofluorescence, high-content cytometry, 24 h; active = well fitted activation curve with a large enough effect; inconclusive = small, poorly fitted or top-dose-only effect; inactive = flat fitted curve, though single readings scatter; cell line not stated here;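 further: potency means the concentration at half of the fitted maximal effect; % of control where 0% means no effect; nearly all actives have a fitted effect of over 65% in size; a mitochondrial uncoupler was the plate control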
#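 Compound titrations (5 concentrations, 24 h) on a stable cell line; DMSO and CCCP controls. Endpoint: fixed-cell PINK1 immunofluorescence with mitochondrial, cell and nuclear markers, scanned by microplate cytometer.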
# gsp antag – antagonizes gsp, the McCune-Albright syndrome mutation. gsp-mutant cells, cAMP HTRF, 30 min; control for the full effect not named in the record. Potency, µM (top dose mostly 76.9 µM), without a hit: at the highest dose activity change, negative = inhibition, most hits filed as inhibitors. AID 624288. 340,000 tested, 0.4% active; active = falling curve of any shape with a large fitted effect; inconclusive = falling curve, mostly with a smaller effect; inactive = flat or rising curve; cell line not stated here;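 further: intracellular cAMP measured with PDE inhibitor Ro 20-1724 present during compound exposure; potency means the concentration at half of the fitted maximal effect; on the % scale 0 is the no-effect control and ±100 the full control effect; nearly all actives have a fitted effect of over 65% in size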
#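 Cells in G418 medium, seeded 16-24 h, 37C; buffer exchange to DPBS + 1 mM CaCl2, 0.5 mM MgCl2, 0.05% BSA; cpds in DMSO + […] (300 uM stock), 30 min 37C; HTRF cAMP detection.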
# Sfp inh – inhibitors of Bacillus subtilis Sfp phosphopantetheinyl transferase; Biochemical Sfp PPTase activity, qHTS; Potency, µM, for the others: max response, negative = inhibition, actives largely listed as inhibitors; 310,000 tested, 3.5% active; AID 1490; active means well fitted inhibition curve with a large enough effect; inconclusive means small, poorly fitted or top-dose-only effect, or another doubt; inactive means no such curve, though single readings can be large or run the other way;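 further: the enzyme is Sfp with the accession as filed and its product quenches rhodamine fluorescence; potency means the concentration at half of the fitted maximal effect; 0% = enzyme reaction without inhibitor and -100% = no enzyme wells; top concentration of the series not given in the record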
#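 Fluorescence-quenching assay with 15 nM Sfp, 5 uM rhodamine-CoA and 12.5 uM BHQ-2-labelled ybbR peptide in pH 7.6 Hepes/MgCl2 buffer. Enzyme was pre-incubated with compound for 15 min at room temperature. Rate was taken from the 30-min fluorescence change (525/598 nm).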
# D2 ag – agonists of human D2 dopamine receptor (beta-arrestin). P14416. DiscoveRx PathHunter D2 beta-arrestin, luminescence, 90 min; 100% = 57 uM dopamine signal. activation, % (no concentration beside the values). 360,000 tested, 0.084% active; in the data active = activation above about 40%; inconclusive = about 15% to 40%; inactive = below about 15%; further: compound concentration not given in the record; the text of the record calls up to 30% inactive
# Target sequence (P14416 whole entry, looked up): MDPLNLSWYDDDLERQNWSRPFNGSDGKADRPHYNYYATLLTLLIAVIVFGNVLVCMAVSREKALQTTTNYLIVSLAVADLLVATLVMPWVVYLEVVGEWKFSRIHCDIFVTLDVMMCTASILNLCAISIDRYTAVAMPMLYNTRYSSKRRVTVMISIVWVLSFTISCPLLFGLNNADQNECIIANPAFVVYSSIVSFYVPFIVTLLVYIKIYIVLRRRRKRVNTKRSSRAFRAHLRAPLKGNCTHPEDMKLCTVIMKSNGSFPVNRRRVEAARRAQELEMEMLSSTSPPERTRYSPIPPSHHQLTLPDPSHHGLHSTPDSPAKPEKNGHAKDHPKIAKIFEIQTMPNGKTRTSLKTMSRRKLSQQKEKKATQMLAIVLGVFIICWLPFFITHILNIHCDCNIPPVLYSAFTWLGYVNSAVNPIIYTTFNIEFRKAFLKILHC
#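 Agonist mode: compounds alone added to overnight-plated D2 PathHunter cells for 90 min at 37 C, with 57 uM final dopamine (EC100) defining full response. Beta-arrestin recruitment detected by chemiluminescent reagent, read after 1 h at ambient temperature.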
# Menin-MLL FL inh – inhibitors of human menin-MLL interaction, wild-type MLL peptide. Fluorescence polarization, fluorescein-MLL peptide displacement from menin. FP activity change, % at 61.4 µM. 290,000 tested, under 10 active; inconclusive = falling polarisation curve, or a change in total fluorescence; inactive = total fluorescence flat and polarisation flat or rising; no compound was filed as active; the % refers to the polarisation; negative = inhibition;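 further: % of control where 0% means no effect; inhibitors lower the polarisation; unlabelled MLL peptide was the positive control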
# ClpP mod – qHTS Assay for Activators of ClpP | Potency, µM (doses to about 57.5 µM), for inactives: at the highest dose activity change, negative = active | 340,000 tested, 1.9% active | ATP-dependent Clp protease proteolytic subunit (Bacillus subtilis (strain 168)), P80244 | AID 651965, 2013 | purified B. subtilis ClpP, FRET peptide cleavage, 20 min; active = well fitted falling curve with a large enough effect; inconclusive = small, poorly fitted or top-dose-only effect; inactive = no such curve, though single readings can be large or run the other way; further: potency means the concentration at half of the fitted maximal effect; the source files actives as falling curves though it sought activators and does not explain the sign; nearly all actives have a fitted effect of over 65% in size; many hits overshoot -100%
# Target sequence (P80244 whole entry, looked up): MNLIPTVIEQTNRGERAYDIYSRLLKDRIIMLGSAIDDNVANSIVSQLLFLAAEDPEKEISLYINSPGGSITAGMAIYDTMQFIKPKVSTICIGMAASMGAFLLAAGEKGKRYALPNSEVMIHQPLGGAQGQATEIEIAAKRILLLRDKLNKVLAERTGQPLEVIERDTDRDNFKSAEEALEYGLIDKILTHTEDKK
#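 Buffer: 100 mM Tris/HCl pH8, 100 mM KCl, 0.05% low protease BSA, 2.5% glycerol, 0.01% Tween-20. ClpP 10 microg/mL final; 20 min RT; delta FRET normalized to ADEP and DMSO controls.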
# gsp ag – activates gsp, the McCune-Albright syndrome mutation; gsp mutant cells, cAMP HTRF, 30 min; control for the full effect not named in the record; Potency, µM (doses to about 76.9 µM), inactives show at the top dose activation (cAMP increase), actives largely listed as activators; 340,000 tested, 0.13% active; active = well fitted activation curve with a large enough effect; inconclusive = small, poorly fitted or top-dose-only effect, or another doubt; inactive = no such curve, though single readings can be large or run the other way; cell line not stated here;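 further: phosphodiesterase inhibitor Ro 20-1724 added with compounds to block cAMP breakdown; potency means the concentration at half of the fitted maximal effect; nearly all actives have a fitted effect of over 60% in size; about a fifth of the inactives were tested at one dose only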
#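 Cells stably selected in G418 were plated at 2000/well, grown 16-24 hr, then given compounds in DMSO with the PDE inhibitor […] (300 uM solution added) for 30 min at 37C; cAMP was read by HTRF.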
# * hit, by the source's call; ? = inconclusive; . = not tested or not shown; [ ] = dose if it differs, or a comment.
SMILES,PINK1 expr mod,gsp antag,Sfp inh,D2 ag,Menin-MLL FL inh,ClpP mod,gsp ag
Cc1cc(C)c(S(C)(=O)=O)c(Oc2cccc(Cl)c2)n1,0.8%,6%,-1%,1.5,2.5,-3.4%,12%
CCNC(=S)NNC(=O)c1cc(-c2cccc(OCC)c2)nc2ccccc12,?,-25%,13%,-4.3,1.9,29%,-12%
Cc1ccc(NC(=O)Cn2c(=S)[nH]c3ccccc32)cc1,11%,-3%,45µM*,-2.6,5.9,.,-1%[15.4 µM]
CC1Cc2ccccc2N1C(=O)COC(=O)c1ccc(S(=O)(=O)N(C)C)cc1 (stereo unspecified),1.3%,13%,9%,-2.6,0.1,-0.3%,9%
Nn1c(SCC(=O)NC2CCCc3ccccc32)nnc1-c1cccs1 (stereo unspecified),-0.9%,-2%,6%,0.6,-1.6,-0.7%,-19%
C[C@H]1CN(CCc2ccccc2)C(=O)[C@@H]1CC(=O)Nc1ccccc1,-1.8%,.,.,-1.8,.,-1.8%,19%
O=C(NCCOC(=O)c1ccc(F)cc1)c1ccc(F)cc1,3.7%,9%,13%,-0.3,-0.6,0.4%,5%
CCOc1ccc(-n2c(=O)[nH]cc(C(=O)Nc3ccc(OC)c(OC)c3)c2=O)cc1,-0.6%,-4%,5%,1.6,-0.5,.,-8%[15.4 µM]
Clc1ccc(-c2n[nH]c3c2CCC3)c(Cl)c1,-0.4%,21%,23%,-0.1,1.5,-2.5%,24%
COc1ccc(NC(=O)c2ccc3c(c2)NC(=O)CS3)cc1,6.3%,5%,.,-2.1,.,2.3%,-24%
O=C1CC(N2CCN(C/C=C/c3ccccc3)CC2)C(=O)N1Cc1ccc(N2CCCC2=O)cc1 (stereo unspecified),?,-8%,6%,-2.6,-0.6,0.4%,3%
COC(=O)c1ccc(CN(c2ccc(C(=O)O)c(O)c2)S(=O)(=O)c2ccc(Cl)c([N+](=O)[O-])c2)cc1,11%,-17%,-7%,-0.4,0.9,-7.6%,3%[15.4 µM]
CCOC(=O)N1CCN(S(=O)(=O)c2ccc(C(=O)Nc3ccc4c(c3)C(=O)NC4=O)cc2)CC1,?,25%,-25%,-2.4,6.5,20µM*,-2%
CN(C)S(=O)(=O)c1ccc(C(=O)NCC[N+]2(C)CCCCCC2)o1,-0.4%,-2%,13%,-4.6,-0.6,0.0%,-37%[inhibitor]
Cc1ccc(CNC(=O)C2CSC3(C)CCC(=O)N23)cc1 (stereo unspecified),0.1%,4%,.,0.8,.,.,-17%
Cc1ccc2ccc(C3C(=O)c4ccccc4C3=O)nc2c1,22%[38.3 µM],-6%,.,-1.6,.,-2.2%,-4%
COc1ccc(CCNC(=O)CN(C2CCCCC2)S(C)(=O)=O)cc1OC,.,-3%,-7%,0.6,-3.5,-0.6%,-35%[inhibitor]
O=C(CSc1nc2ccccc2o1)NCC1CCCO1 (stereo unspecified),-0.4%,11%,.,0.7,.,2.2%,11%[15.4 µM]
COc1ccc(-c2nc(-c3ccccn3)no2)cc1,-0.7%,-2%,-3%,-4.4,-1.5,-2.7%,?
CCN1CCN(C(=S)c2ccc(OCC(=O)N3CCOCC3)cc2)CC1,0.7%,4%,14%,-1.8,1.2,-3.6%,?
CC(C)C1NC(=S)N(C2CCCCC2)C1=O (stereo unspecified),0.1%,-10%,0%,-0.4,-0.2,-1.7%,8%
O=C(Nc1cccc(C(=O)N2CCOCC2)c1)C1CCCC1,-0.4%,4%,.,1.1,.,0.2%,.
O=C(CSc1nc2ccccc2c(=O)[nH]1)N1CCOCC1,.,-2%,14%,-1.5,-1.7,-1.8%,10%
O=C(OCc1ccc(C(=O)c2ccccc2)cc1)c1cccc(-c2nnc(-c3ccccc3)o2)c1,2.6%[38.3 µM],-10%,2%,-4.5,-2.3,-1.5%,-16%
CC(C)(C)NC(=O)NC(=O)COc1ccccc1C#N,-0.1%,0%,12%,-1.2,-0.8,-3.2%,-4%
COc1ccc(-c2cn(-c3ccc(C)cc3C)c(=O)[nH]2)cc1OC,3.7%,2%,-14%,-6.0,6.4,3.5%,?
CCOC(=O)c1cc(-c2csc(-c3ccc(C(C)(C)C)cc3)n2)on1,2.0%,-50%,-16%,-2.8,4.6,0.8%,-2%[15.4 µM]
CCOc1ccccc1C1C(C(N)=O)=C(C)Nc2nc(-c3ccc(OC)cc3)nn21 (stereo unspecified),2.8%,-3%,17%,-1.0,2.4,-10%,?
Cc1ccc(CN2CCN(/N=C/c3ccc(C(=O)O)cc3)CC2)cc1,2.1%,1%,-21%,0.9,-1.0,-0.3%,3%
O=C(O)CCCC(=O)N1CCOCCOCCOCCOCC1,-0.2%,-5%,6%,3.0,4.2,-1.2%,7%
O=C(O)c1ccc(C(=O)Nc2cccc(NC(=O)C3CCCO3)c2)cc1 (stereo unspecified),25%[38.3 µM],-7%,7%,1.4,1.1,-1.7%,-6%
COC(=O)c1ccccc1NC(=O)CSc1nc2c(c(=O)[nH]1)CCC2,0.0%,-6%,4%,?,-0.3,-0.4%,22%
O=C(COc1ccc2ccccc2c1)NC1=NCCS1,-1.5%,5%,-3%,-3.2,-1.9,-1.1%,-6%
CCC(c1nc2ccccc2c(=O)n1-c1nc2ccccc2s1)N1C(=O)c2ccccc2C1=O (stereo unspecified),4.0%,1%,10%,-1.5,7.5,-3.9%,-18%
COc1ccc(OC)c(S(=O)(=O)N2CCCC(C(=O)NCc3ccccn3)C2)c1 (stereo unspecified),0.0%,-4%,7%,-0.2,2.0,.,-11%
N#CC1=C2SCN(Cc3ccco3)CN2C(=O)CC1c1ccc(Cl)cc1 (stereo unspecified),4.4%,10%,2.5µM*,0.9,8.8,1.7%,-5%
Cc1ccc(/C=C/C(=O)c2nc3ccccc3[nH]2)cc1,-2.9%,6%,23%,-0.1,1.6,-2.6%,23%
Cc1ccc(S(=O)(=O)N2CCN(S(C)(=O)=O)C2)cc1,2.5%[38.3 µM],-3%,6%,-3.4,4.1,0.8%,1%
CCn1c(SCC(=O)Nc2nnc(C)s2)nnc1-c1ccncc1,0.2%[38.3 µM],6%,15%,-2.2,-0.9,-2.1%,9%
Cc1cccc(NC(=O)CC(=O)Nc2cccc(C)c2)c1,-0.4%,-26%,4%,3.3,-1.6,0.0%,-26%[15.4 µM]
Cc1ccc(OCCCC(=O)Nc2nnc(C3CCCO3)s2)c(C)c1 (stereo unspecified),4.1%,14%,14%,-1.0,1.0,1.1%,7%[15.4 µM]
S=C1COC(c2ccccc2)N1c1ccccc1 (stereo unspecified),0.6%,-11%,7%,0.3,0.7,-3.3%,-3%
CCN(CC(=O)Nc1cc(S(=O)(=O)N2CCCCC2)ccc1C)Cc1ccccc1,2.5%,?,.,-5.4,.,-6.8%,6%[15.4 µM]
CCc1cccc(NC(=O)Nc2ccc3c(c2)OCO3)c1,4.6%,-16%,7%,2.2,-0.4,.,4%
COCCNS(=O)(=O)c1cc(F)ccc1OC,-0.4%,7%,19%,-1.9,0.6,-1.7%,-30%
COc1ccc(-c2ccnc(SCC(=O)c3ccc(OC)c(OC)c3)n2)cc1,11%,1%,9%,-3.5,6.2,-6.8%,17%
O=C(COc1ncnc2ccccc12)NCCc1ccc(F)cc1,-0.6%,10%,2%,-0.1,2.4,.,5%[15.4 µM]
CN1CCN(C(=O)c2ccc(COc3cc(Cl)ccc3Cl)o2)CC1,-1.5%,7%,6%,-2.6,0.5,.,-12%
O=C(CN(Cc1ccc(Br)cc1)S(=O)(=O)c1ccccc1)NCc1ccccn1,4.3%,-10%,18%,-3.2,.,0.7%,1%
COc1ccc(-c2c(C)nn3c(N4CCC5(CC4)OCCO5)cc(C)nc23)cc1OC,2.3%,-1%,1%,-2.0,-0.4,1.0%,3%
COC(=O)C1=C(C)Nc2[nH]c(=S)[nH]c(=O)c2C1c1ccc(OC)cc1 (stereo unspecified),-1.7%,-6%,40µM*,-8.5,1.8,0.4%,?
Cc1ccc(C(=O)c2ccc(C)cc2)cc1,2.3%,0%,1%,1.3,-1.2,.,-22%
COc1ccccc1-c1csc(C(C)(NC(C)=O)c2ccccc2)n1 (stereo unspecified),0.9%,.,.,-4.6,.,3.6%,.
COc1cc(OC)cc(-n2nnnc2SCC(=O)NCCc2ccc(OC)c(OC)c2)c1,-0.6%,-14%,14%,3.9,1.1,10%,-26%
C=C(C)C1CC=C(C)/C(=N/NC(=O)COc2cccc3ccccc23)C1 (stereo unspecified),9.8%[38.3 µM],13%,6%,-2.8,-0.2,-1.2%,?
CN(c1ccc(S(=O)(=O)N2CCOCC2)cn1)C1CCCCC1,-0.6%,-26%[15.4 µM],10%,-3.2,4.4,2.0%,-5%
N#CC1=C(N)C(C#N)(C#N)C2(CCC3(CC2)OCCO3)C2CC3(CC=C12)OCCO3 (stereo unspecified),-5.3%[38.3 µM],-29%,3%,-0.2,0.3,-27%,0%
Cc1ccc(CN2C(=O)CSc3ccc(C(=O)NC4CC4)cc32)cc1,1.4%,?,9%,8.7,4.8,.,3%
CCCC(=O)c1cc(F)c(N2CCN(S(=O)(=O)c3ccccc3)CC2)cc1C,.,?,-9%,0.3,-0.6,-3.7%,-6%
Cc1cc2c(cc1C)CSC(c1c(O)ccc3ccccc13)SC2,-1.5%,-8%,23%,5.0,1.3,-17%,2%
Cc1ccc(-c2nc3ccccc3s2)cc1S(=O)(=O)N1CCOCC1,30%[38.3 µM],4%,-23%,0.1,-0.7,9.2%,13%

# Ordered by count of non-hydrogen atoms (smallest number first): some entries from above.
SMILES,PINK1 expr mod,gsp antag,Sfp inh,D2 ag,Menin-MLL FL inh,ClpP mod,gsp ag
CC(C)C1NC(=S)N(C2CCCCC2)C1=O (stereo unspecified),0.1%,-10%,0%,-0.4,-0.2,-1.7%,8%
C[C@H]1CN(CCc2ccccc2)C(=O)[C@@H]1CC(=O)Nc1ccccc1,-1.8%,.,.,-1.8,.,-1.8%,19%
COc1ccc(CCNC(=O)CN(C2CCCCC2)S(C)(=O)=O)cc1OC,.,-3%,-7%,0.6,-3.5,-0.6%,-35%[inhibitor]
